From PubChem BioAssay
MT1-MMP act inh = blocks activation of human MT1-MMP; P50281; GFP/RFP ratio change, % at 20 µM; AID 651647; HT1080 RFP-PRO-GFP cells, GFP/RFP ratio fluorescence, overnight; percent of plate control window, DMSO zero; 0.061% of 360,000 active;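 active = GFP/RFP ratio change of at least 30% with cell ATP level not reduced by more than half and red fluorescence within 50% of control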; also: strong numbers were not always called active
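Assay system: HT1080 cells carrying an RFP-PRO-GFP reporter | Dosing: Single dose of 20 µM compound, 1% DMSO final | Incubation: Cells overnight before dosing, compound overnight, 37 °C, 5% CO2 | Evaluation: GFP/RFP fluorescence ratio | Control set: DMSO and RFP-L50D-GFP cell wells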
UUG fidelity = alters start codon recognition fidelity in yeast; activity score, % at 18.7 µM; AID 602363; S. cerevisiae UUG-firefly luciferase reporter, luminescence/redox ratio; 0.13% of 350,000 active;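 active = replicate mean at a twofold rise or more, about +100% in these data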;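 also: firefly luciferase made from a UUG start codon reports start codon fidelity; reporter light over untreated wells divided by growth signal over untreated wells; some hits fall short of that in this replicate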
MT1-MMP act inh RFP = further read-out of MT1-MMP act inh, marked with its call; RFP signal change, %; measured here: RFP expression control read;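 0 = vehicle wells; hits needed this value within 50% of zero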
* hit, by the source's call; & = joins results of further samples. Some of the compounds tested (hit frequency here may not be typical).

SMILES | MT1-MMP act inh | MT1-MMP act inh RFP | UUG fidelity
CCN(C(=O)COC(=O)CCOc1cc(C)ccc1C)c1c(N)n(Cc2ccccc2)c(=O)[nH]c1=O | -2 | 0 | -16
COc1cccc(CN(C)C(=O)Cn2cc(C)c(=O)[nH]c2=O)c1 | 0 | 2 | -5
Cc1ccc(Nc2cc(Cl)nc(N)n2)c([N+](=O)[O-])c1 | 2 | -3 | -22
CC1(C(=O)NCc2ccc3c(c2)OCO3)CCN1C(=O)CCc1ccc(Cl)cc1Cl (stereo not given) | 1 | -10 | -5
Cc1cc(C)cc(C(=O)OCC(=O)Nc2ncccn2)c1 | 2 | 5 | 12
COc1ccc(S(=O)(=O)N(C)C[C@@H]2OCc3cnnn3CCCC(=O)N([C@H](C)CO)C[C@@H]2C)cc1 | 0 | 2 | 3&-1
CCCS(=O)(=O)NC(=O)C1(C)CCN(C(=O)c2ccc(C(F)(F)F)nc2C)C1 (stereo not given) | 2 | 6 | -4
CCOC(=O)C1(C)CCCCCN1C(=O)c1ccccc1F (stereo not given) | -1 | 5 | -22
COc1ncnc2c1ncn2CCCN1CCN(Cc2ccc(C)cc2)CC1 | 1 | 2 | -5
O=C(O)c1ccc([N+](=O)[O-])nc1 | 0 | 2 | -2
CCOC(=O)C1(C)CCCN1C(=O)c1ccc(C(F)(F)F)nc1C (stereo not given) | 5 | 6 | -21
CCCS(=O)(=O)NC(=O)C1(C)CCCN(C(=O)c2ccc(F)c(Cl)c2)C1 (stereo not given) | 3 | 1 | -3
COC(=O)c1ccc(Cn2cnc3c(Cl)ncnc32)cc1 | 4 | -2 | -19
O=C(COc1ccc(Br)cc1)NCC1COc2ccccc2O1 (stereo not given) | 0 | 4 | -4
CCCCn1c(N)c(N(CC(C)C)C(=O)CSc2nn(-c3ccc(F)cc3)c(=S)s2)c(=O)[nH]c1=O | -12 | -7 | -6
COc1cc(CNC(=O)Nc2nc(C(N)CCc3ccccc3)cs2)cc(OC)c1OC (stereo not given) | 3 | 5 | -17
C[C@H]1CN([C@@H](C)CO)C(=O)CCCn2nncc2CO[C@@H]1CN(C)Cc1ccc(C(F)(F)F)cc1 | -3 | -1 | -5&5
O=C(CN1CCN(c2ccccc2)CC1)NC(=O)NCc1ccccc1 | 0 | 1 | -14
CCOc1ccc(NC(=O)c2ccco2)cc1S(=O)(=O)N1CCCC1 | -3 | 1 | 62
CC(C)CN(C(=O)COC(=O)C12CC3CC(CC(O)(C3)C1)C2)c1c(N)n(Cc2ccccc2)c(=O)[nH]c1=O | -3 | 3 | 3
Cc1cccc(C)c1OCCOC(=O)c1cccc(S(=O)(=O)N2CCOCC2)c1 | 2 | -7 | -7
CCn1c(SCC(=O)NCC2CCCO2)nc2ccccc21 (stereo not given) | 0 | 3 | -15
CC(=O)CSc1ccc(S(=O)(=O)N2CCN(C)CC2)cn1 | 3 | 2 | -6
CCCCN(C(=O)C(C)(C)Oc1ccc(Cl)cc1)c1c(N)n(CCC)c(=O)[nH]c1=O | -6 | -4 | -12
O=C(COC(=O)Cc1ccc(F)cc1)NC1CCCCC1 | -2 | 3 | -11
CCN1C(=O)C(=O)N(CC(=O)Nc2cc(C)ccc2C)C1=O | 3 | 3 | -7
CC1(C(=O)NS(=O)(=O)C2CC2)CCCN(C(=O)/C=C/c2ccccc2)C1 (stereo not given) | 1 | 0 | -11
CC1=C(C(=O)N(C(C)C)C(C)C)CC(CC(=O)NC2CC2)C(=O)N1Cc1ccccc1 (stereo not given) | 1 | 3 | 13
O=C(NCC(=O)N1CCCCCCC1)c1ccccc1Cl | 3 | 2 | -5
CC(C)c1ccc(Oc2cccc3c2S(=O)(=O)N(C2CCCC2)CC(COCc2ccccc2)O3)cc1 (stereo not given) | -3 | -12 | -17
CC(=O)Nc1ccc(C(=O)CN2C(=O)NC3(CCOc4ccccc43)C2=O)c(F)c1 (stereo not given) | -3 | 0 | -7
CC(CNC(=O)CN1C(=O)C(=O)N(C2CCCC2)C1=O)c1ccccc1 (stereo not given) | 0 | 0 | 1
O=S(=O)(c1ccc(OCc2ccc(Br)cc2)cc1)N1CCOCC1 | 1 | -1 | -14
COc1cccc(C(NC(C)=O)c2nc(-c3cccnc3)cs2)c1 (stereo not given) | -5 | -3 | 1
O=C1N[C@@H](Cc2ccccc2)COC(=O)[C@H](Cc2ccc(F)cc2)CC/C=C/C[C@@H]1CC(=O)N(CCO)Cc1ccccc1 | -15 | -21 | -11
Cc1cccc(C(=O)OC(C)C(=O)NCC2CCCCC2)c1O (stereo not given) | 1 | 2 | -6
COc1ccc(NC(=O)c2cc(C3CCCCN3S(=O)(=O)Cc3ccccc3)on2)c(C)c1 (stereo not given) | 2 | -9 | -4
Nc1ccc2c(S(=O)(=O)O)cccc2c1S(=O)(=O)O | -7 | 0 | -29
C/C(=N\NC(=O)c1ccc(O)cc1)c1ccc2c(c1)OCCO2 | 4 | 0 | -13
O=C(c1cc(-c2cccnc2)nc2ccccc12)N1CCN(S(=O)(=O)c2ccc(Cl)s2)CC1 | 2 | 1 | -3
Cc1nnc(SCC(=O)c2c[nH]c3ccccc23)n1C1CC1 | 3 | 5 | -21
CN(C)S(=O)(=O)c1cccc(NC(=O)COC(=O)C2CCN(C(=O)c3ccc(F)cc3)CC2)c1 | 3 | 4 | 2
O=C(NNC(=O)c1cccc2ccccc12)c1ccc(F)cc1 | 1 | -4 | -17
CC(C)CNC(=O)c1[nH]c(C(F)(F)F)nc1-c1ccccc1 | 2 | 4 | -1
CN(C)c1ccc(C=NNc2nc3c([nH]2)c(=O)n(C)c(=O)n3C)cc1 | 5 | -1 | -15
COc1cc2ccc(=O)oc2c(O)c1O | 2 | 2 | -20
CCOc1ccccc1OCCCC(=O)NNC(=O)c1nn(C)c(=O)c2ccccc12 | 0 | -1 | -13
CCN(CC)C(=O)C1=C(C)N(CCCOC)C(=O)C(CC(=O)NC2CC2)C1 (stereo not given) | -2 | 6 | -15
COc1ccc(NC(=O)c2cc(C3CCCCN3C(=O)c3cc(OC)c(C)c(OC)c3)on2)c(C)c1 (stereo not given) | -2 | -10 | -4
COC(=O)CCC(C)C1CCC2C3CCC4CC(O)CCC4(C)C3CC(O)C12C (stereo not given) | -4 | -3 | 18
CC(=O)c1cc2c(cc1NC(=O)Cc1ccsc1)OCO2 | 5 | 3 | -2
COc1ccc(C2=Nc3ccccc3NC(=O)C2N(Cc2ccc(F)cc2)C(=O)c2ccco2)cc1 (stereo not given) | -3 | -1 | 2
CC1=C(C(=O)N(C(C)C)C(C)C)CC(CC(=O)NCCN2CCOCC2)C(=O)N1Cc1ccc(C(C)(C)C)cc1 (stereo not given) | 1 | 0 | 6
O=C(C1CCN(CCc2ccccc2)CC1)N1CCOCC1 | 2 | 3 | -19
COc1ccc(N(Cc2ccccc2)S(=O)(=O)c2cccc(C(=O)Nc3ccccn3)c2)cc1 | -1 | -1 | -9
O=C([C@@H]1CCCN1C(=O)c1cccs1)N1CCN(S(=O)(=O)c2cccc(F)c2)CC1 | -2 | 2 | -2
C[C@@H]1CN([C@@H](C)CO)C(=O)CCCn2nncc2CO[C@H]1CN(C)C(=O)Nc1ccc(C(F)(F)F)cc1 | 9 | 9 | -18&8
Cc1ccc(C2(C)NC(=O)N(CC(=O)Nc3cc(S(=O)(=O)N4CCOCC4)ccc3OC(C)C)C2=O)cc1 (stereo not given) | 1 | 1 | -5
O=C(CCC(=O)c1ccc(F)cc1)NCC1(N2CCCCC2)CCCCC1 | 2 | 0 | -14
COc1ccccc1C(=O)COC(=O)c1cccc(-n2cnnn2)c1 | 4 | 7 | -3
(next part)
SMILES | MT1-MMP act inh | MT1-MMP act inh RFP | UUG fidelity
CN(CC(=O)Nc1ccc(F)c(F)c1F)C(=O)Cc1ccc(S(=O)(=O)N2CCOCC2)s1 | -5 | -2 | 2
C[C@H]1CN[C@@H](CCO)/C1=C\c1ccccc1 | 0 | 3 | -15
N#Cc1ccc(S(=O)(=O)N2CCN(C(=O)c3cn(-c4ccccc4)nc3-c3cccnc3)CC2)cc1 | -1 | -1 | -3
Cn1c(=O)c2cc(NC(=O)NCCc3cccs3)ccc2n1-c1ccc(C(C)(C)C)cc1 | 3 | -7 | -11
CC1(C(=O)NCc2ccc(F)c(F)c2)Cc2c(-c3ccccc3)ccnc2O1 (stereo not given) | -2 | -6 | -12
CC1CCN(C(=O)CN2c3cccc4cccc(c34)S2(=O)=O)CC1 | 3 | 3 | 6
CCCC1NC(=O)c2cc3ccccc3cc2-n2c1nc1cc(F)ccc1c2=O (stereo not given) | -6 | -11 | -2
CCOC(=O)c1nnsc1C(OC)Oc1ccccc1 (stereo not given) | 2 | 4 | -8
N#Cc1ccc(Cl)cc1NC(=O)COC(=O)c1cccc(S(=O)(=O)N2CCOCC2)c1 | 3 | 1 | 1
Cc1ccc(S(=O)(=O)CCC(=O)OCC(=O)Nc2cc(S(=O)(=O)N3CCOCC3)ccc2Cl)cc1 | 2 | -1 | -4
COCCN1C[C@@H](CO)O[C@@H](n2cnc3c(N4CCN(C)CC4)ncnc32)C1 | 2 | 3 | -15
CCCN(CC1CC1)C(=S)NC(=O)c1cc(Br)ccc1Cl | -3 | -6 | -15
O=C(O)c1cc2ccccc2[nH]1 | 0 | -1 | -8
Nc1nc2c(ncn2[C@@H]2O[C@H](CNC(=O)[C@H](N)Cc3cncn3COCc3ccccc3)[C@@H](O)[C@H]2O)c(=O)[nH]1 | 0 | 5 | -1
CCN1CCN(c2ccccc2NC(=O)c2ccc(-n3cccn3)cc2)CC1 | -4 | 1 | 2
CCOc1ccccc1OCC(=O)NC1CCSc2ccccc21 (stereo not given) | 0 | -4 | -19
CC(=O)OC1(C(C)=O)CCC2C3CC4OC45CC(O)CCC5(C)C3CCC21C (stereo not given) | -2 | -2 | -18
N#Cc1cccc(S(=O)(=O)NCc2nnc3ccccn23)c1 | 2 | 5 | -1
CCC1(c2ccc(F)cc2)NC(=O)N(CC(=O)Nc2cccc(S(=O)(=O)N3CCCC3)c2)C1=O (stereo not given) | 4 | 2 | -4
CCN1CCN(c2ccc(NC(=O)c3ccc(OC)c(S(=O)(=O)N4CCCC4)c3)cc2)CC1 | -2 | -3 | -8
CCc1ccc(OCCNc2cc(N3CCNC(C)C3)ccc2[N+](=O)[O-])cc1 (stereo not given) | 13 | -7 | -8
